# KCNQ2 inh: KCNQ2 potassium channel inhibitors, primary screen, cell-based, CHO-K1, FluxOR thallium flux, B-score (AID 2156). Potassium voltage-gated channel subfamily KQT member 2 (Rattus norvegicus), O88943. 20 min; stronger effect = lower value; only compounds with negative scores are shown here; some inactives read as strong as hits. B-score at 10 µM. 310,000 compounds, 1.1% hits;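 active means fluorescence ratio B-score at most minus 3 library SDs, with starting brightness B-score within 2 library SDs, cut at about -5.5 in these data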
# Target sequence (O88943 whole entry, looked up): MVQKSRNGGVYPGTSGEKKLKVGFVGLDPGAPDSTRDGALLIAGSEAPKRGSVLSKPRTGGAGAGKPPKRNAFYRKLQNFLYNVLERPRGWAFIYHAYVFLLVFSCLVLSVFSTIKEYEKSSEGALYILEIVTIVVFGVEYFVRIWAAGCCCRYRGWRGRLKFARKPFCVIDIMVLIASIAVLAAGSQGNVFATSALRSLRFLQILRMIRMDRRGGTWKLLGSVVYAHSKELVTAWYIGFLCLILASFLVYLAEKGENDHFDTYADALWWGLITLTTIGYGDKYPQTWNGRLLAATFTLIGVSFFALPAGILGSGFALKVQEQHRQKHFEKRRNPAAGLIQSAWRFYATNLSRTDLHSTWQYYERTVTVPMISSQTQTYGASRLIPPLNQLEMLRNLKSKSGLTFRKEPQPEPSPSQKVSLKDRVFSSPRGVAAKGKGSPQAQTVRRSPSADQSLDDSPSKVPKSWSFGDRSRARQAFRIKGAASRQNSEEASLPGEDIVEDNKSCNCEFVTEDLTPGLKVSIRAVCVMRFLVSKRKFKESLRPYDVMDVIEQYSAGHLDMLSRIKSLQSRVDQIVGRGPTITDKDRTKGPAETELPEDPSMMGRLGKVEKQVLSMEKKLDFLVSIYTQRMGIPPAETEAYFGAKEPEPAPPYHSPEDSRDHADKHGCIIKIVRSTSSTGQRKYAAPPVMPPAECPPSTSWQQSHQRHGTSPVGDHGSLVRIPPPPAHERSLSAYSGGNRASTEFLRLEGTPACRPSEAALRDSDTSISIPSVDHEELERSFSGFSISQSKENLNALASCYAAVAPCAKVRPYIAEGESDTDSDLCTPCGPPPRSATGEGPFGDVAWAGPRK
# KCNQ2 inh baseline: also measured in KCNQ2 inh; calls as there; B-score; measured here: initial fluorescence intensity artifact check;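 brightness before thallium and not channel activity; 0 = typical well and far values either way flag optical interference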
# The depositor's hits bear a star; i = inactive. An excerpt; rates above refer to the full screens.
no. | SMILES | KCNQ2 inh | KCNQ2 inh baseline
1 | CC(=O)N1c2c(cc(Br)cc2S(=O)(=O)NCC2COc3ccccc3O2)CC1C (stereo not drawn) | i | 0.07
2 | CN1CCCC(OC(=O)c2cccc(S(=O)(=O)N3CCCCCC3)c2)C1 (stereo not drawn) | i | 0.22
3 | COc1ccc(OCC(=O)Nc2c(C(=O)N3CCN(C)CC3)oc3ccccc23)cc1 | i | 1.9
4 | C=CCn1c(SCc2c(C)noc2C)nc2sc(C)c(C)c2c1=O | -6.5* | 1.6*
5 | C=CCN(CC=C)C(=S)Nc1ccccc1 | i | 1.6
6 | Cc1cc(-c2ccc(C)c(S(=O)(=O)NCC3CCN(Cc4ccc(F)cc4)CC3)c2)on1 | i | -0.33
7 | CC(NC(=O)CNC(=O)c1cccc(Cl)c1)c1ccccc1 (stereo not drawn) | i | 1.4
8 | O=C(c1ccc2nc(-c3ccco3)c(-c3ccco3)nc2c1)N1CCN(c2ncccn2)CC1 | i | 0.27
9 | N/C(=N\N=C\c1ccc2c(c1)OCO2)c1nonc1N | i | -1.5
10 | Cn1c2ccccc2c(=O)c2c(=O)n(Cc3ccco3)c(-c3ccc(F)cc3)nc21 | i | -0.08
11 | O=C(COC(=O)c1ccccc1SCC(=O)N1CCCC1)NCc1ccccc1 | i | 0.32
12 | O=c1c2c(-c3ccc([N+](=O)[O-])cc3)csc2nc2n1CCCCC2 | i | -0.02
13 | Cn1c(CSCc2ccc(F)cc2)nnc1SCC(=O)N1CCN(c2ccccc2)CC1 | i | -1.3
14 | Cc1ccc(-c2nc(CS(=O)CC(=O)NC(C)CCc3ccccc3)c(C)o2)cc1 (stereo not drawn) | i | -0.84
15 | NC(=O)NC(=O)COC(=O)CNS(=O)(=O)c1ccc(F)c(F)c1F | i | -1.7
16 | CCOC(=O)C1=C(c2ccccc2)NC(=S)NC1c1ccc(C)c([N+](=O)[O-])c1 (stereo not drawn) | i | -0.38
17 | CN1CCN(C2CCN(S(=O)(=O)c3ccc(C(C)(C)C)cc3)CC2)CC1 | i | -1.1
18 | C=C(C)CN1C(=O)C(=O)N(CC(=C)C)C1=O | i | -0.21
19 | Cc1cc(=O)[nH]c(SCc2cccc3cccnc23)n1 | i | 2.3
20 | O=C(COC(=O)C1CCCCC1)Nc1ccc(S(=O)(=O)N2CCOCC2)cc1 | i | 3.5
21 | N#Cc1ccccc1OCCCN1CCC(Cc2ccccc2)CC1 | i | 0.05
22 | CN1CCN(C(=O)/C(=C/c2ccc([N+](=O)[O-])cc2)NC(=O)c2ccccc2)CC1 | i | -0.01
23 | COc1cccc(-c2noc(C3CCCN(C(=O)Cc4ccccc4)C3)n2)c1 (stereo not drawn) | i | 0.99
24 | O=[N+]([O-])CC(c1ccccc1)c1c[nH]c2ccccc12 (stereo not drawn) | i | -0.65
25 | CC(NC(=O)OC(C)(C)C)C(=O)NC(CCC(=O)OCc1ccccc1)C(N)=O (stereo not drawn) | i | -0.12
26 | COc1ccc(NC(=O)Cn2nc(C(=O)O)c3ccccc3c2=O)cc1Cl | i | -1.3
27 | CC1CCCN(c2ccc(C(=O)Nc3ccc4c(c3)OCO4)cc2[N+](=O)[O-])C1 (stereo not drawn) | i | 1.1
28 | CCOC(=O)C1CCN(Cc2nc3ccccc3c(=O)n2-c2ccc(OCC)cc2)CC1 | i | -1.2
29 | COc1ccnc(N=CNOCc2ccc(F)cc2Cl)c1C#N | i | -1.8
30 | CN(C(=O)c1cccc(C(=O)N(C)c2ccccc2)c1)c1ccccc1 | i | 1.9
31 | CC(C)[C@H](NC(=O)c1ccco1)C(=O)OCC(=O)NC12CC3CC(CC(C3)C1)C2 | i | 0.43
32 | O=C(CN1c2cccc3cccc(c23)S1(=O)=O)Nc1cccc(S(=O)(=O)N2CCOCC2)c1 | i | -0.37
33 | O=C(Nc1nc2ccsc2c(=O)s1)c1ccc(F)cc1Cl | i | 0.27
34 | COCCn1c(SCC(=O)Nc2ccc(OC)cc2)nc2c(oc3ccccc32)c1=O | i | -1.3
35 | Cc1ccc(C(=O)Nc2ccccc2N2CCCCC2)cc1[N+](=O)[O-] | i | -0.05
36 | N#C/C(=C/c1cccn1-c1cccc(C(=O)O)c1)c1ccc(F)cc1 | i | 2
37 | CCOC(=O)c1nn(-c2ccccc2)c(=O)cc1SC1CCCCC1 | i | 0.35
38 | Cc1ccc(CN(C)C(=O)CCc2c[nH]c3ccccc23)o1 | i | -0.21
39 | COC(=O)c1ccc(CN2CCC(CO)(Cc3ccc(OC)cc3)CC2)cc1 | i | 0.39
40 | CCC(C)n1c(/C=C/c2ccccc2)nc2ccccc21 (stereo not drawn) | -5.7* | -0.81*
41 | CCN(CC(=O)Nc1c(F)cccc1F)C(=O)C1CCN(c2ncnc3sc(C)c(C)c23)CC1 | i | -1.3
42 | CCc1nc(SCC(=O)NCc2ccco2)c2c(=O)n(C)c(=O)n(C)c2n1 | i | 1.7
43 | CC12CN(C(=O)c3ccccc3)C3(C#N)CC1CCC23C (stereo not drawn) | i | 2
44 | CCCCn1c(SCc2cc(=O)[nH]c3ccccc23)nc2c1c(=O)n(C)c(=O)n2C | i | 0.16
45 | Cc1sc2ncnc(SC(C)C(=O)N3c4ccccc4Sc4ccccc43)c2c1C (stereo not drawn) | i | -0.68
46 | O=C(C1CCCN(S(=O)(=O)c2cccc3nonc23)C1)N1CCC(Cc2ccccc2)CC1 (stereo not drawn) | i | 2.1
47 | COc1ccccc1NC(=O)c1ccccc1NS(=O)(=O)N1CCCC1 | i | -0.64
48 | O=C(NCC(=O)N(c1ccccc1)C(C(=O)NC1CCCC1)c1cccnc1)c1cccs1 (stereo not drawn) | i | -1
49 | COc1ccc(-c2cc(C(F)(F)F)nc(SCC(=O)Nc3sc4c(c3C#N)CCC4)n2)cc1 | i | 0.25
50 | O=C(COc1ccccc1Cl)Nc1ccc2c(c1)OCCO2 | i | 0.67
51 | CCCNC(=O)C1CC(c2ccccc2C(F)(F)F)=NO1 (stereo not drawn) | i | 1.4
52 | COc1cc(S(=O)(=O)N(Cc2ccco2)C2CCCC2)ccc1-n1cnnn1 | i | 0.04
53 | Cc1ccc(S(=O)(=O)CCC(=O)Nc2nnc(CC(C)C)s2)cc1 | i | -0.3
54 | COc1ccc2ccc3c(c2c1)N=CC1(O3)N(C)c2ccccc2C1(C)C (stereo not drawn) | -8.2* | 0.06*
55 | Cc1sc2nc(CN(C(=O)NCc3ccccc3)C3CCCC3)[nH]c(=O)c2c1C | i | -1.6
56 | O=c1ccn(CCc2c[nH]c3ccccc23)c2c1CCCC2 | i | 0.87
57 | COc1ccc(S(=O)(=O)CC(O)CN2CCCC2=O)cc1 (stereo not drawn) | i | 1.1
58 | CCOC(=O)c1c(O)cc(C)cc1Nc1ccccc1 | i | 0.03
59 | Clc1ccc(-c2nnc(CSc3nnc(-c4cccs4)o3)o2)cc1 | i | -0.26
60 | COc1cccc(N2CCN(c3ccc4nnc(CCC(=O)Nc5ccc(OC)c(OC)c5)n4n3)CC2)c1 | i | -0.74

# Single values from the entries so far:
# entry 51 @ KCNQ2 inh baseline: 1.4
# entry 34 @ KCNQ2 inh baseline: -1.3
# entry 40 @ KCNQ2 inh baseline: -0.81*
# entry 36 @ KCNQ2 inh baseline: 2
# entry 60 @ KCNQ2 inh baseline: -0.74
# entry 41 @ KCNQ2 inh baseline: -1.3
# entry 42 @ KCNQ2 inh baseline: 1.7

# (further entries)
no. | SMILES | KCNQ2 inh | KCNQ2 inh baseline
61 | COc1ccc(C(OCC(O)CN(C)C2CCCCC2)c2ccc(OC)cc2)cc1 (stereo not drawn) | i | 0.34
62 | Cc1c(N(C)C)nc2ccccc2c1N | i | -0.44
63 | CCc1ccc(C(=O)Nc2cc(C)ccc2F)s1 | i | -0.01
64 | Cc1oc(-c2cccc(Cl)c2)nc1CN1CCCC(C(=O)NCc2ccco2)C1 (stereo not drawn) | i | -0.95
65 | CCOc1ccc(CNc2nnnn2C)cc1 | i | -1.5
66 | O=C(CS(=O)(=O)Cc1ccccc1)Nc1ccc(Cl)cn1 | i | -0.36
67 | Clc1cc(/C=N\NC2=NCCN2)cc(Cl)n1 | i | -0.01
68 | Cc1ccc(S(=O)(=O)N2CCC(C(=O)NNC(=O)c3cccnc3)CC2)cc1 | i | 0.07
69 | Cc1ccc(S(=O)(=O)N2CCN(CC(=O)N/N=C\c3ccc(Cl)c([N+](=O)[O-])c3)CC2)cc1 | i | -1.1
70 | COc1ccc(CCNC(=O)CSc2nc3ccccc3c3nc(CCN4CCCCC4)nn23)cc1OC | i | 0.75
71 | CCCN1C2CCCC1CC(NC(=O)c1ccc(Br)cc1)C2 (stereo not drawn) | i | -0.13
72 | CC(C)(C)c1nc(S(=O)(=O)c2ccc(Cl)cc2)c(N2CCOCC2)o1 | i | 0.06
73 | O=C(N/N=C/C1CC2CCC1C2)c1ccc2c(c1)OCO2 (stereo not drawn) | i | 0.67
74 | C/C(=N\Nc1nc(-c2ccc(C)cc2C)cs1)c1cc2ccccc2oc1=O | i | 0.21
75 | CCNC(=O)NC(=O)C(C)N1C(=O)NC(c2ccccc2)(c2ccccc2)C1=O (stereo not drawn) | i | 0.19
76 | COc1ccc2cc(CN(Cc3cccs3)Cc3nnnn3Cc3ccccc3)c(=O)[nH]c2c1 | i | 1.9
77 | CSc1nc(=NC(C)=O)ss1 | i | 0.51
78 | Cc1cccc(-n2c(C)cc(C(=O)NC3CCCCC3)c2C)c1 | i | 0.42
79 | O=C(Nc1ccnn1C1CCN(Cc2ccc(OC(F)F)cc2)CC1)C1CCCC1 | i | -1.2
80 | CCCOc1ccc(/C(O)=C2/C(=O)C(=O)N(CCN(C)C)C2c2ccc(O)c(OC)c2)cc1 (stereo not drawn) | i | 1.1
81 | CC(C(=O)NC1CCCC1)N(C(=O)c1ccc(-c2ccccc2)[nH]1)c1ccccc1F (stereo not drawn) | -6.5* | 1.6*
82 | Cc1ccc(NC(=O)CN2CCc3cc4c(cc3C2)OCCCO4)cc1C | i | -1.1
83 | COC(=O)c1c(SCC(=O)Nc2ccc(C)c(C)c2)nc(=O)[nH]c1C | i | 1
84 | CN1CCN(CC(=O)N/N=C/c2ccc(F)c(F)c2)CC1 | i | 0.06
85 | Cn1c(O)c(/C=N/Nc2ccccc2)c(=O)n(C)c1=O | i | 2.6
86 | O=C(CCl)Nc1cn(-c2ccccc2)nc1-c1ccccc1 | i | -0.1
87 | CN(C)CC(C)(C)CNCc1cc(=O)oc2ccc3ccccc3c12 | i | -0.77
88 | O=c1nc2n(c3ccc([N+](=O)[O-])cc13)CCCCC2 | i | 1.8
89 | CCCCC(=O)NCc1ccc(F)cc1 | i | 0.41
90 | CC1OC(Nc2ccc(N=Nc3ccccc3)cc2)C(O)C(O)C1O (stereo not drawn) | i | -1.4

# Reformatted in transposed form: entries from further up.
68: Cc1ccc(S(=O)(=O)N2CCC(C(=O)NNC(=O)c3cccnc3)CC2)cc1
69: Cc1ccc(S(=O)(=O)N2CCN(CC(=O)N/N=C\c3ccc(Cl)c([N+](=O)[O-])c3)CC2)cc1
70: COc1ccc(CCNC(=O)CSc2nc3ccccc3c3nc(CCN4CCCCC4)nn23)cc1OC
71: CCCN1C2CCCC1CC(NC(=O)c1ccc(Br)cc1)C2 (stereo not drawn)
72: CC(C)(C)c1nc(S(=O)(=O)c2ccc(Cl)cc2)c(N2CCOCC2)o1
compound no.	68	69	70	71	72
KCNQ2 inh	i	i	i	i	i
KCNQ2 inh baseline	0.07	-1.1	0.75	-0.13	0.06

# Remaining list, next part:
no. | SMILES | KCNQ2 inh | KCNQ2 inh baseline
91 | COc1cc(OC)c(NC(=O)C2CCCO2)cc1Cl (stereo not drawn) | i | -0.83
92 | O=C(CNC(=O)c1ccco1)OC(C(=O)c1ccccc1)c1ccccc1 (stereo not drawn) | i | 3.7
93 | CC(c1ccccc1)n1c(N2CCNCC2)nc2c1c(=O)[nH]c(=O)n2C (stereo not drawn) | i | 0.01
94 | COc1cc(C(=O)OCC(C)=O)c([N+](=O)[O-])cc1OC | i | 0.09
95 | Cc1cccc(N2CCN(C(=O)c3ccc(NC4=NC5CS(=O)(=O)CC5S4)cc3)CC2C)c1 (stereo not drawn) | i | 3.8
96 | COc1ccc(CNC(=S)NCc2ccc(Cl)cc2)cc1OC | i | 1.1
97 | O=C(Oc1cccc(N2C(=O)CCC2=O)c1)C1CC(=O)N(c2ccc(Br)cc2)C1 (stereo not drawn) | i | 1.5
98 | CC(=O)Nc1ccc(S(=O)(=O)N(C)c2nc3ccccc3nc2Cl)cc1 | i | -0.21
99 | COc1ccc(N(CC(=O)NCC(C)C)S(=O)(=O)c2ccccc2)cc1 | i | -0.63
100 | CCOC(=O)C1=C(C)C(c2ccccc2O)NC(=O)N1 (stereo not drawn) | i | -1.1
101 | O=C(CN1CCN(C(=O)c2ccco2)CC1)Nc1ccccc1 | i | 3.1
102 | COc1ccc(N2CC(C(=O)N3CCC(c4nc5ccccc5[nH]4)CC3)CC2=O)cc1 (stereo not drawn) | i | 1.2
103 | CCC(CC)N1CCN(C(=O)c2cc(OC)c(OC)c(OC)c2)CC1 | i | 0.19
104 | C=CCOC(=O)C1=C(C)NC(SCC(=O)NC(=O)OCC)=C(C#N)C1c1cccnc1 (stereo not drawn) | i | -1.4
105 | Cc1ccc(-n2cc(CNCCN3CCOC3=O)c(-c3cccc(C)c3)n2)cc1 | i | 0.2
106 | CCCCCCCCC(=O)NCCOc1ccc(OC)cc1 | i | 1.5
107 | Cc1ccccc1C1CCCN(Cc2nc(C3CC3)no2)C1 (stereo not drawn) | i | 0.08
108 | O=C(Cc1ccc(F)cc1)NCCS(=O)(=O)N1CCN(c2cccc(Cl)c2)CC1 | i | 1.8
109 | Cc1cc(C(=O)COC(=O)c2n[nH]c3ccccc23)c(C)n1C | i | -0.07
110 | CCn1nnc2sc3c(c2c1=O)CCC(C)C3 (stereo not drawn) | i | -0.9
111 | Cc1ccc(NC(=S)N2CCCC2)cc1Cl | i | -0.42
112 | O=C(NCC(O)CO)c1ccc2[nH]c3ccccc3c2c1 (stereo not drawn) | i | 0.06
113 | COC(=O)c1cc(NC(=O)CC2SCCNC2=O)cc(C(=O)OC)c1 (stereo not drawn) | i | -0.45
114 | N#Cc1cnn2ccc(-c3cc(N4CCOCC4)ccc3[N+](=O)[O-])nc12 | i | 3.3
